Assay outcomes: PubChem, several laboratories
Autofluor counter – counter-screen for toxin protease inhibitors: compound fluorescence | compound autofluorescence counterscreen, microsphere flow cytometry; active compounds read high | fluorescence intensity (test concentration not listed) | 360,000 tested, 3.1% active | AID 624483;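 active = at least 3 SD above the mean of all compounds, about 16000 in these data; inconclusive = too few beads counted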;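 also: 100 nL of 1 mM stock went into each well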
ugtP null kill – compounds lethal to S. aureus RN4220 ugtP deletion mutant. 330,000 tested, 0.54% active. OD600 growth, 16 h; some inactives read as strong as hits. growth inhibition, % (concentration not given with the values);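 active = z-score under -3 and OD600 up to 0.15 on both plates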;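 also: plate controls were untreated wells for no effect and antibiotic for full effect; wells of about 80 µL received 100 nL stock; the first replicate is given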
BJeLR viability – kills HRASV12-expressing BJeLR cells. inhibition, % (test concentration not listed). 300,000 tested, 0.17% active. AID 1554. BJeLR (HRASV12) viability, CellTiter-Glo ATP luminescence, 48 h; reference of the scale not given here;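 active = replicate mean above 50%; inconclusive = above 50% but judged a plate artefact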;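 also: 50 nL library stock added to about 25 µL; numbers are from one replicate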
RN4220 kill – S. aureus RN4220 growth inhibition; inhibition, % (test concentration not listed); AID 1259311; OD600, 16 h; 330,000 tested, 0.33% active;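 active = z-score of -3 or lower and OD600 up to 0.18 on both plates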;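 also: plate controls were untreated cells for no effect and reference antibiotic for full effect; stock transfer was 100 nL into about 80 µL; one replicate is shown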
Mtb hypoxia inh – Mtb hypoxia fluorescent reporter inhibition | M. tuberculosis hypoxia-regulated fluorescent reporter, fluorescence | fluorescence inhibition, % (concentration not given with the values) | 300,000 tested, 0.1% active | AID 1159583;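 active = 35 to 45% if threefold the growth effect, above 45% if 1.5-fold the growth effect; inactive = the rest, general growth blockers included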;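 also: wells of about 50 µL received 100 nL stock; 0% = vehicle wells and 100% = reference inhibitor wells; whole bacteria with a GFP reporter of the hypoxia response; strong numbers were not always called active; many hits fall short of the cut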
PrP 5UTR inh – inhibition of PrP 5' UTR reporter expression. cell-based PrP 5' UTR mRNA reporter, plate reader. inhibition, % (concentration not given with the values). 340,000 tested, 0.35% active. AID 488862;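 active = every replicate at 50% or more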;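 also: 0 = median of the neutral control wells; tested in H4 reporter cells; numbers are from one replicate; inactives centre near -14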
Mtb hypoxia inh growth – recorded beside Mtb hypoxia inh, whose call it bears; growth inhibition, %; measured here: M. tuberculosis growth (absorbance);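 0% = vehicle and 100% = reference antibiotic; read after six days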
* marks the source's active call; other numbers are inactive results; ? = inconclusive; . = not tested or not shown; & = joins results of further samples. Not a hit list, and some 3.9% of all compounds hit somewhere here.

SMILES | Autofluor counter | ugtP null kill | BJeLR viability | RN4220 kill | Mtb hypoxia inh | Mtb hypoxia inh growth | PrP 5UTR inh
CCC1CCCCN1CCCNC(=O)c1ccc(CS(=O)(=O)Cc2ccccc2F)o1 (stereo not given) | 2606 | 3.9 | 1.1 | 4.9 | 9.5 | 4.9 | -10.0
COc1ccc(-c2cc3c(=O)n(CC(=O)NCc4ccccc4OC)ncn3n2)cc1 | 5522 | -4.7 | -10.0 | 0.2 | 1.1 | 3.5 | 5.4
O=C(c1ccccc1Br)N1CCN(c2ccccc2)CC1 | 10714 | 6.7 | 0.8 | 1.0 | 12.0 | 14.4 | -21.6
O=C(NCCc1ccco1)c1nn(Cc2ccccc2)c(=O)c2ccccc12 | 4061 | -5.9 | -0.9 | -0.2 | 0.6 | 1.1 | -27.2
CCOC(=O)C1(Cc2ccc(OC)cc2)CCN(C(=O)CN2CCN(CC)CC2)CC1 | 2453 | -3.1 | -2.3 | 6.0 | -1.9 | -2.4 | -23.6
CC(C)NC(=O)NS(=O)(=O)c1cnccc1N1CCCCC1 | 4632 | -0.9 | 5.9 | -1.8 | . | . | -25.6
O=c1oc2ccccc2c(N2CCCCC2)c1CN1CCCCC1 | 2637 | 10.5 | 2.6 | 6.1 | . | . | -36.3
CS(=O)(=O)N1CCN(C(=O)c2cc(-c3cccs3)nc3ccccc23)CC1 | 3663 | 2.9 | -8.5 | 4.0 | . | . | -8.9
O=C(CCC(=O)c1cccs1)OCc1nc2ccccc2s1 | 3779 | 5.2 | 0.2 | 1.4 | -7.9 | -1.0 | -16.9
O=c1[nH]c(=O)n(C2CCCCCC2)c(O)c1C=NC1CCN(Cc2ccccc2)CC1 | 4639 | 0.6 | 8.4 | -2.0 | . | . | -16.9
COc1ccc(NC(=S)N(CCN2CCOCC2)Cc2ccccc2F)cc1 | 3128 | -12.8 | . | -1.1 | -7.5 | 10.3 | -26.7
COc1cc2c(cc1OC)C1=C(C#N)CCC(=NC(=O)c3ccc(Cl)cc3)N1CC2 | 2909 | -2.7 | 4.4 | 6.9 | 5.0 | 0.7 | 12.2
COc1ccccc1C(=O)n1nc(-c2cccnc2)nc1N | 4197 | -9.8 | 8.3 | 3.9 | -1.9 | 2.4 | -1.8
O=C(NCc1ccccc1F)C1CCCN(S(=O)(=O)N2CCOCC2)C1 (stereo not given) | 5881 | 4.6 | -0.2 | 0.9 | 1.1 | -13.6 | -4.7
O=C(c1cccs1)N1CCN(C(=O)c2cn(-c3ccccc3)nc2-c2ccccc2)CC1 | 4076 | -5.5 | . | -1.2 | -14.3 | 1.5 | -45.8
Cc1cc(=O)[nH]c(/N=C(\N)Nc2ccc3c(c2)OCCO3)n1 | 4788 | . | 0.9 | . | . | . | -21.8
COc1ccc(CCNC(=S)NCCc2ccc(OC)c(OC)c2)cc1OC | 4095&6195 | 0.0 | 10.1 | 3.4 | 6.6 | -7.9 | -24.6
c1ccc2c(c1)ncn2-c1ncnc2sc3c(c12)CCCC3 | 3849 | -4.6 | -0.1 | 2.2 | 1.8 | 2.3 | -15.3
Cc1ccc(-c2cc(-c3n[nH]c(=S)o3)c3ccccc3n2)cc1 | 2522 | 81.8 | 15.8 | 71.3 | 9.6 | 11.8 | -26.4
CCCOCC1CC2(CC(C)(c3csc(N)n3)OC2=O)C(=O)O1 (stereo not given) | 3521 | 2.4 | -1.0 | 0.8 | . | . | -8.4
O=C(c1cccs1)N(Cc1ccco1)c1nc(-c2ccc(F)cc2)cs1 | 2915 | 91.9* | -1.4 | -16.2 | -0.7 | 8.5 | -15.5
COc1ccc(-c2nnc(-c3ccccc3)o2)cc1OC | 3506 | 6.4 | -6.2 | 12.8 | 6.3 | 5.0 | -58.8
CC1CCCN(C(=O)CSc2nnc(-c3cccs3)o2)C1 (stereo not given) | 6195 | 5.8 | -1.0 | 5.0 | 51.2* | 25.1* | -60.6
O=C(CSc1ccc2ccccc2c1)Nc1ccncc1 | 9929 | -4.8 | 14.2 | -7.0 | 11.4 | 4.2 | .
COc1ccc2nc(NC(=O)CCc3nc(C4=CCN(C)CC4)no3)sc2c1 | 3280 | 16.2 | -1.2 | 3.3 | 0.5 | 7.5 | -9.4
Cc1ccc(C(=O)NNC(=O)c2nn(-c3ccc(F)cc3)ccc2=O)cc1 | 4198 | 0.6 | -0.7 | 2.3 | 5.5 | 16.4 | -9.7
COc1ccc(CC(=O)Nc2cccc(C(C)=NNC(=O)C3(C)CC3(Br)Br)c2)cc1 (stereo not given) | . | 5.9 | . | -2.9 | 3.3 | -1.9 | .
Cc1cccc(N2CCN(S(=O)(=O)c3ccc4c(c3)CCN4C(=O)CCC(=O)O)CC2)c1C | 24315* | 4.5 | . | 4.2 | 4.2 | 5.4 | -20.8
CN(CC=CC#CC(C)(C)C)Cc1cccc2ccccc12 | . | 88.5* | . | -5.9 | 0.9 | 8.2 | .
COc1ccc(CN2CCNC(=O)C2CC(=O)NCCCn2cccn2)c(OC)c1 (stereo not given) | 2722 | 2.2 | -24.3 | 5.5 | 14.6 | 0.9 | -25.1
Cc1ccc(/C=C2\SC(=S)N(CCCC(=O)Nc3cc(C)on3)C2=O)cc1 | 5072 | 7.3 | -17.4 | 1.4 | 9.4 | -3.0 | 1.2
COC(=O)CNC(=O)CCC(=O)N1CCN(C(c2ccccc2)c2ccccc2)CC1 | 3603 | 13.2 | 0.5 | -4.2 | 9.6 | 0.8 | -9.7
C=CCn1c(SCC(=O)NC(=O)Cc2ccccc2)nc2ccccc2c1=O | 8747 | 1.0 | . | 4.1 | 23.4* | 56.9* | -27.9
CC(=O)c1cc(NC(=O)c2ccccc2)c(=O)oc1/C=C/N(C)C | 24475* | -7.1 | -7.2 | 4.4 | . | . | -35.0
O=C(COC(=O)CNC(=O)c1ccc(Cl)cc1Cl)NCC1CCCO1 (stereo not given) | 6373 | 6.7 | 5.2 | 1.7 | 7.6 | 6.4 | -16.4
COCCn1c(=S)[nH]c2cc(C(=O)N3CCN(c4cccc(Cl)c4)CC3)ccc2c1=O | 4509 | -11.9 | -0.6 | -3.1 | 4.4 | -4.1 | -2.7
Cc1cc(C(C)(C)CC(C)(C)C)ccc1OCCOCC[N+](C)(C)Cc1ccccc1 | 6092 | 100.1* | . | 100.8* | 1.9 | 18.8 | -26.4
Cc1nn(CC(=O)Nc2ccc3c(c2)oc2ccccc23)c(=O)c2ccccc12 | 3353 | 3.8 | 4.3 | 2.2 | 3.8 | 14.4 | -35.6
COc1ccccc1N1CCN(C(=O)CN(Cc2ccc(Cl)cc2)S(C)(=O)=O)CC1 | 8124 | 3.5 | 5.6 | 3.5 | 11.3 | 3.6 | -31.5
COc1ccccc1Nc1nnc(C)c(=O)[nH]1 | 16456* | 1.3 | -14.7 | 1.8 | 1.7 | -3.2 | -4.6
COc1ccccc1-n1c(CCC(=O)O)ccc1-c1ccccc1 | 4225 | 41.5 | -6.9 | 12.9 | 3.2 | 5.5 | -8.4
COc1ccc(Cn2c(C)nc3c(c2=O)c2nc4ccccc4nc2n3Cc2ccco2)cc1 | 4181 | 32.1 | . | 12.9 | . | . | -2.2
CCc1ccc2n(-c3ccc(OC)cc3)c([S-])c(C(=O)Nc3cc(C)cc(C)c3)[n+]2c1 | 7288 | 10.0 | -7.0 | 6.5 | 7.3 | 0.2 | -11.0
CCc1ccc(-c2nc(C)c(CCO)c(=O)[nH]2)cc1 | 2170 | 2.1 | -2.7 | 1.6 | -10.1 | -5.4 | -2.3
N[C@@H](CO)c1cn([C@@H](Cc2cc3ccccc3[nH]2)C(=O)N2CCNCC2)nn1 | 3483 | . | -0.5 | . | . | . | 1.5
CN(C)c1ccc(/C=C(\C#N)c2ccccn2)cc1 | 2399 | -5.9 | 14.6 | 6.2 | 8.4 | 4.9 | 35.6
Cc1cccc(NC(=S)N2CCCCCC2)c1 | 2303 | 0.0 | 2.0 | 1.6 | 11.1 | 3.2 | -7.5
CCCN(CCC)S(=O)(=O)c1ccc(C(=O)Nc2nnc(COC)o2)cc1 | 2724 | 0.5 | 0.0 | 23.9 | 4.8 | -1.5 | -13.2
Cn1c(=O)[nH]c(=O)c2c1nc(N1CCN(C(c3ccccc3)c3ccccc3)CC1)n2CCO | 2801 | . | -1.8 | . | . | . | -13.8
Cc1nnc(SCc2ccccc2F)n1NCc1cccs1 | 22098* | -3.2 | 18.5 | 2.6 | 1.5 | 12.1 | -27.1
O=C(O)c1cc2cc(S(=O)(=O)O)ccc2cc1O | 3849 | -2.6 | . | 0.0 | 6.6 | 4.7 | -29.8
CSc1ccc(/C=N/NC(=O)CNc2ccc3ccccc3c2)cc1 | 1961 | . | 8.5 | . | . | . | -12.3
COc1ccccc1/C=N/NC(=O)c1cccc(OC(F)(F)C(F)F)c1 | 2087 | . | 4.8 | . | . | . | -15.3
O=C(NN=Cc1cn(CC(=O)N2CCOCC2)c2ccccc12)c1cccnc1 | . | -2.8 | . | 0.7 | -0.1 | -1.7 | .
COP(=O)(OC)C(NC(=O)C(C)(C)C)=C(Cl)Cl | 9697 | -2.8 | -3.6 | 7.6 | 6.9 | 7.2 | 9.4
N#Cc1cccc(C(c2nnnn2C2CCCC2)N2CCC(Cc3ccccc3)CC2)c1 (stereo not given) | 5535 | 3.6 | 2.5 | -1.2 | . | . | -2.5
COc1ccccc1NS(=O)(=O)c1ccc(N/N=C/C=C/c2ccccc2[N+](=O)[O-])c([N+](=O)[O-])c1 | 2026 | . | -1.7 | . | . | . | -4.0
Cc1ccc(NC(=O)CN(C)C(=O)C2CCC2)cc1 | ? | 2.2 | . | -1.4 | 7.0 | 10.3 | 0.8
COc1ccccc1NC(=O)c1ccccc1Oc1ccccc1 | 3156 | 11.6 | -12.7 | -0.1 | 9.1 | 10.0 | -18.9
NC1=NC(=O)C(CC(=O)Nc2ccc3c(c2)OCO3)S1 (stereo not given) | 2345 | 4.1 | -1.4 | 0.1 | 6.7 | 8.8 | -7.1

6 neighbouring records already listed:
SMILES | Autofluor counter | ugtP null kill | BJeLR viability | RN4220 kill | Mtb hypoxia inh | Mtb hypoxia inh growth | PrP 5UTR inh
O=C(O)c1cc2cc(S(=O)(=O)O)ccc2cc1O | 3849 | -2.6 | . | 0.0 | 6.6 | 4.7 | -29.8
CSc1ccc(/C=N/NC(=O)CNc2ccc3ccccc3c2)cc1 | 1961 | . | 8.5 | . | . | . | -12.3
COc1ccccc1/C=N/NC(=O)c1cccc(OC(F)(F)C(F)F)c1 | 2087 | . | 4.8 | . | . | . | -15.3
O=C(NN=Cc1cn(CC(=O)N2CCOCC2)c2ccccc12)c1cccnc1 | . | -2.8 | . | 0.7 | -0.1 | -1.7 | .
COP(=O)(OC)C(NC(=O)C(C)(C)C)=C(Cl)Cl | 9697 | -2.8 | -3.6 | 7.6 | 6.9 | 7.2 | 9.4
N#Cc1cccc(C(c2nnnn2C2CCCC2)N2CCC(Cc3ccccc3)CC2)c1 (stereo not given) | 5535 | 3.6 | 2.5 | -1.2 | . | . | -2.5

The listing continues:
SMILES | Autofluor counter | ugtP null kill | BJeLR viability | RN4220 kill | Mtb hypoxia inh | Mtb hypoxia inh growth | PrP 5UTR inh
COc1ccc(/C=C/C(=O)NC(=S)NNC(=O)[C@H]2C[C@@H]2c2ccccc2)cc1OC | 6058 | -14.3 | -0.2 | 7.0 | -2.2 | 9.9 | 12.0
COc1ccc(OCc2nnc(SCC(=O)O)n2N)cc1 | 8646 | 1.4 | 0.8 | 0.2 | -61.8 | 1.7 | -31.8
CCOc1ccc(NC(=O)CSc2ncnc3c2sc2ccccc23)cc1 | 6705 | 5.9 | 2.4 | 4.5 | 9.2 | 0.1 | -13.4
CCS(=O)(=O)c1ccc2oc(SCC(=O)NCc3ccccc3)nc2c1 | 4219 | 2.5 | -0.5 | -1.7 | -3.7 | 6.8 | 2.9
O=C(NCCCc1ccc(F)cc1)C1CCC(=O)N(CC2CCCCC2)C1 (stereo not given) | 4214 | 13.1 | -3.6 | 1.8 | 4.5 | 2.0 | 9.8
COc1ccc(CCNC(=O)COC(=O)COc2ccc(Cl)cc2)cc1OC | 4046 | 1.2 | -14.4 | 2.7 | 1.3 | -3.3 | -12.9
O=S(=O)(c1ccc(Cl)cc1)N1CCC(O)(CN2CCN(Cc3ccccc3)CC2)CC1 | 4168 | -0.1 | 4.5 | 2.5 | -3.3 | 3.9 | -27.9
